Assay outcomes: PubChem BioAssay, Fisher Drug Discovery Resource Center
NPYLR7 agonist: activates Aedes aegypti NPYLR7 receptor; AID 1259423; actives 0.15% (n = 270,000); HEK293T NPYLR7/Galpha15, GCaMP6s calcium fluorescence; activation, % at 10 µM; in the data active = activation above about 40%;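 note: 0% = vehicle and 100% = reference agonist at the receptor; some compounds past the cut are filed as inactive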
NPYLR7 agonist max-min: further read-out of NPYLR7 agonist, marked with its call; activation, %; measured here: Max-Min RFU normalised activation; some inactives read as strong as hits;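 span of the calcium signal over five minutes; 0% = vehicle and 100% = native peptide agonist; compound fluorescence can raise it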
Numbers without * were called inactive; & = joins results of further samples. These rows are one share of the data; rates above refer to the full screens.

SMILES | NPYLR7 agonist | NPYLR7 agonist max-min
CC1=NN(C(=O)c2ccn(Cn3cc(Br)cn3)n2)C(O)(C(F)F)C1 (stereo unspecified) | 3 | 18
COCC(C)NC(=O)C1CCN(c2cc(C(C)C)nc(C)n2)CC1 (stereo unspecified) | 12 | 4
O=[N+]([O-])c1cccc(/C=N\Nc2cc(N3CCOCC3)nc(N3CCOCC3)n2)c1 | -6 | -10
CC(C)Cn1c(=S)[nH]c2ccccc21 | 2 | 0
N#Cc1ccc(NCc2ccc(N3CCSCC3)cc2)nc1 | 0 | -2
O=C(CCNC(=O)c1ccc(F)cc1)NCc1cn[nH]c1-c1ccccc1 | 5 | 4
COc1cccc(OC)c1-c1c(-c2ccccc2)ncn1CC1COCCO1 (stereo unspecified) | 20 | 5
COCc1cc(N(C)CCc2ccc(OC)c(OC)c2)nc(SCc2cccc(C(=O)N3CCOCC3)c2)n1 | -10 | -8
CC(C)Cn1cncc1CNc1nc(C(C)(C)C)nc2c1cnn2C | 1 | 5
O=C(c1cccc(F)c1)N(Cc1nccn1Cc1cccc(C(F)(F)F)c1)CC1CCCO1 (stereo unspecified) | 8 | 25
CS(=O)(=O)Nc1ccc(C#N)cc1 | 7 | 7
CS(=O)(=O)N1CCN(S(=O)(=O)c2ccc(F)cc2)CC1 | 9 | 2
COc1nc(-c2ccc(F)cc2)n(-c2ccc(NC(=O)c3ccc(C(F)(F)F)cc3)cc2)n1 | -2 | -1
CCOc1ccc(C=NNc2nc3c(c(=O)n(C)c(=O)n3C)n2CC(C)C)cc1 | -4 | -4
S=C(N=P(c1ccccc1)(N1CCOCC1)N1CCOCC1)N1CCOCC1 | 5 | 4
Cc1cccc(C(=O)N2CCC3(CC2)OCC(C(=O)N2CCOCC2)N3C(=O)c2ccc(F)cc2)c1 (stereo unspecified) | 2 | 9
O=S(=O)(Nc1ccc(O)cc1)c1cccs1 | 14 | 14
CS(=O)(=O)NC1CCN(C(=O)[C@H](N)c2ccccc2)CC1 | 20 | 16
CCCC(=O)Nc1cccc(C(=O)NCCc2nc(C)cc(C)n2)c1 | -7 | -11
CCOc1ncccc1NC(=O)N1CCc2c([nH]c3ccccc23)C1C (stereo unspecified) | 2 | 0
O=C(COC(=O)c1ccc2c(=O)n3c(nc2c1)CCC3)NCc1ccc2c(c1)OCO2 | 7 | 4
Cc1nnc(C)n1-n1ccc2nc3ncnn3c(-c3ccccc3)c2c1=O | 0 | 1
Oc1[nH]c2ccccc2c1N=Nc1nc(N2CCCC2)nc(N2CCOCC2)n1 | -4 | -9
CCc1nc(CN2C(=O)NC(CC)(C3CCNCC3)C2=O)cs1 (stereo unspecified) | 10 | 4
Cc1cccc(C)c1NC(=O)Cn1ncn2nc3c(c2c1=O)CCCC3 | -1 | -7
CCCCC(=O)N(C)c1c(CC)nc2c(OCc3ccccc3C)cccn12 | 3 | 6
CC(Sc1ncc(C(F)(F)F)cc1Cl)C(=O)NC(=O)NC1CCCC1 (stereo unspecified) | 3 | 4
Cc1nc2ccccc2nc1N1CCN(C(=O)c2ccco2)CC1 | 7 | 20
COCC(C)NC(=O)C1CCN(c2cc(C)c3ccc(Cl)cc3n2)CC1 (stereo unspecified) | 6 | 4
O=C(O)CCc1ccc(-c2cccs2)n1CC(=O)O | 3 | 1
O=C1OC(c2cccc([N+](=O)[O-])c2)=N/C1=C/c1cccc(C(F)(F)F)c1 | -1 | 3
Cc1c(C(=O)OCC(=O)c2ccc[nH]2)sc2nc3n(c(=O)c12)CCC3 | 0 | 9
CS(=O)(=O)Nc1ccccc1C(=O)N1CC(c2nc3ccccc3s2)C1 | 0 | 1
CC(C)(O)C#Cc1ccc(C(=O)NCC2(c3ccccc3)CCOCC2)o1 | 8 | 4
C=CCn1c(SCC(=O)c2ccc(C)cc2C)nnc1-c1cccnc1 | -5 | -5
COc1ccccc1NC(=O)Cn1c(O)c(N=NC(=O)c2ccccc2O)c2ccccc21 | -16 | -18
O=C(c1ccc2c(c1)OCCO2)N(CCn1cccn1)c1nc2c(F)cccc2s1 | -15 | -21
Cc1ccc(C)c(-n2nc(-c3ccc(C)c(C)c3)cc2C(=O)NC(c2ccccc2)c2ccccc2)c1 | -1 | 4
COc1ccc(S(=O)(=O)N2CCN(c3nc(-c4ccc(Cl)cc4)nc(C)c3C)CC2)cc1 | 21 | 31
CCN(CC)c1ccc(/C=N\NC(=O)CSc2nnc(-c3ccc(OC)c(OC)c3)n2-c2ccccc2)c(O)c1 | -6 | -9

Random excerpt: 2 compounds from above.
SMILES | NPYLR7 agonist | NPYLR7 agonist max-min
O=C(c1cccc(F)c1)N(Cc1nccn1Cc1cccc(C(F)(F)F)c1)CC1CCCO1 (stereo unspecified) | 8 | 25
CCCC(=O)Nc1cccc(C(=O)NCCc2nc(C)cc(C)n2)c1 | -7 | -11

Some of these compounds in order of molecular weight, smallest number first.
SMILES | NPYLR7 agonist | NPYLR7 agonist max-min
Cc1nc2ccccc2nc1N1CCN(C(=O)c2ccco2)CC1 | 7 | 20
Cc1cccc(C)c1NC(=O)Cn1ncn2nc3c(c2c1=O)CCCC3 | -1 | -7
C=CCn1c(SCC(=O)c2ccc(C)cc2C)nnc1-c1cccnc1 | -5 | -5
CS(=O)(=O)Nc1ccccc1C(=O)N1CC(c2nc3ccccc3s2)C1 | 0 | 1
Oc1[nH]c2ccccc2c1N=Nc1nc(N2CCCC2)nc(N2CCOCC2)n1 | -4 | -9
CC(Sc1ncc(C(F)(F)F)cc1Cl)C(=O)NC(=O)NC1CCCC1 (stereo unspecified) | 3 | 4
COc1ccccc1NC(=O)Cn1c(O)c(N=NC(=O)c2ccccc2O)c2ccccc21 | -16 | -18

(more compounds)
SMILES | NPYLR7 agonist | NPYLR7 agonist max-min
Cc1ccn2c(=O)cc(COc3ccc(Cl)cc3C(N)=O)nc2c1 | -9 | -8
CN1CCN(n2c3c(c(SCc4ccc(Cl)cc4)nc2=O)CCC3)CC1 | -3 | -9
CCOC(=O)c1cc(-c2c(OC)cc(OC)cc2OC)no1 | -1 | -1
COc1cc(OC)c(C2=CCN(C(=O)COc3ccc(C)cc3Br)CC2)c(OC)c1 | 7 | 4
COc1ccc(-c2nc(CSc3nc(-c4ccncc4)cc(=O)[nH]3)c(C)o2)cc1 | -1 | -5
Cc1nc(CN)cc(N2CCC(n3c(=O)[nH]c4ccccc43)CC2)n1 | 3 | 0
CCOc1ccc(CN2CCCn3cccc3C2c2cccc(C)c2)cc1 (stereo unspecified) | -6 | 0
CCNC(=O)N(CCCOC)Cc1c(-c2ccccc2)noc1N1CCc2ccccc2C1 | 0 | 4
O=C(Nn1cnc2c(cnn2-c2ccc(F)cc2)c1=O)c1ccc2c(c1)OCO2 | -2 | -1
O=C(CSc1nnc(-c2ccccc2)c(-c2ccccc2)n1)N1CCOCC1 | 2 | 6
COC(=O)CCc1c(C)nn(-c2ccc(C(=O)Nc3ccc4ncsc4c3)cc2)c1C | -10 | -19
CCC(C)[n+]1c(C)cc(C=C2Sc3ccccc3N2CC)cc1C (stereo unspecified) | 78* | 59*
O=C(c1nccnc1C(=O)N1CCC2(CCCNC2)C1)N1CCCCC1 (stereo unspecified) | -2 | -4
C1=CC(c2ccc(C=NNc3ccccn3)s2)CC1 (stereo unspecified) | 4 | 2
O=C(NCC1CCCO1)c1cccnc1N1CCN(C(=O)c2c(F)cc(F)cc2F)CC1 (stereo unspecified) | 26 | 17
CC(C)c1noc(CS(=O)(=O)CCC(=O)Nc2cccc(F)c2)n1 | 15 | 14
CC(CCn1cccn1)n1ccnc1-c1ccccc1C(=O)O (stereo unspecified) | 6 | 1
Cn1cc(C(NC(=O)C2CC3CCC2O3)C(C)(C)C)cn1 (stereo unspecified) | -25 | -27
O=C(Nc1ccncc1)C1(c2ccc(Br)cc2)CC1 | 9 | 5
CC(OC(=O)c1cc(S(N)(=O)=O)ccc1Cl)C(=O)NC1CC1 (stereo unspecified) | 0 | 3
COc1ccc(OC)c(C2C(C(=O)c3cccs3)=C(O)C(=O)N2CCN2CCOCC2)c1 (stereo unspecified) | 12 | 15
N#Cc1cn(C2CC2)c(=O)n(CC(=O)Nc2ccnn2C2CCCC2)c1=O | 8 | 4
Cc1cccc(-n2nc3c(c2NC(=O)CCC2CCCC2)CS(=O)C3)c1C (stereo unspecified) | -2 | -4
O=C1OC(c2ccc(F)cc2)=NC1=Cc1ccccc1Cl | 9 | 11
CCc1nc2ncc3c(=O)n(N4CCN(C)CC4)ccc3n2n1 | 4 | 9
Cc1ccc(C)c(OC(C)C(=O)NCc2nc(C)cc(=O)[nH]2)c1 (stereo unspecified) | -4&-4 | -5&-7
COc1ccc2c(c1)C1CC(C)(NC(=O)C1S(=O)(=O)c1ccccc1)O2 (stereo unspecified) | 11 | 14
COc1ccc(/C=C/C(=O)N2CCCC(c3nc(SCc4cccnc4)ncc3C)C2)cc1OC (stereo unspecified) | 19 | 2
COc1cccc(CNc2cc(C3CCNCC3)ncn2)c1OC | 17 | 5
O=C(NCCCn1ccc2ccccc21)C1CCC(=O)N(CC2CCCCC2)C1 (stereo unspecified) | -3 | -5
COc1cc(NC(=O)C(C)Oc2ccc(F)c(F)c2)cc(OC)c1 (stereo unspecified) | 5 | 4
Cc1ccc[n+](-c2[nH]c(=O)sc2C=O)c1 | 51 | 40
CC(C)c1cnc2c(c1SCC(=O)Nc1nc3ccccc3s1)c(=O)n(C)c(=O)n2C | 8 | 13
O=C(CC1=CCNCC1)N1CCC(c2n[nH]c(=O)n2Cc2ccccc2)CC1 | 17 | 1
COc1ccc(-c2nnc(SCC(=O)N/N=C\c3ccc(C(C)(C)C)cc3)n2-c2ccccc2)cc1OC | -18 | -13
CCN(C)Cc1cccc(CNCc2cccc3c2OCCO3)c1 | 2 | 0
COc1ccc(C(=O)N(O)c2ccccc2)cc1 | 2 | 1
CC(C)c1ccc(S(=O)(=O)N2CCN(CN3C(=O)CC4(CCCC4)C3=O)CC2)cc1 | 2 | -1
CCCn1c(=O)c2c(nc3n(C4CCCC4)c(C)cn23)n(C)c1=O | 0 | 1
O=C(CCC1CCN(C(=O)c2ccoc2)CC1)Nc1ccccc1 | 1 | -1

An excerpt of these results, as labelled records:
CCCn1c(=O)c2c(nc3n(C4CCCC4)c(C)cn23)n(C)c1=O
  NPYLR7 agonist = 0
  NPYLR7 agonist max-min = 1

N#Cc1cn(C2CC2)c(=O)n(CC(=O)Nc2ccnn2C2CCCC2)c1=O
  NPYLR7 agonist = 8
  NPYLR7 agonist max-min = 4

COc1ccc(/C=C/C(=O)N2CCCC(c3nc(SCc4cccnc4)ncc3C)C2)cc1OC (stereo unspecified)
  NPYLR7 agonist = 19
  NPYLR7 agonist max-min = 2

Following part.
SMILES | NPYLR7 agonist | NPYLR7 agonist max-min
CCOC(=O)c1c(C)nn(-c2ccc(C(=O)NCC(C)(C)CN(C)C)cc2)c1C | 2 | -2
Cc1nc(SCC(=O)Nc2nnc(C)s2)n[nH]1 | -5 | -7
CC1=C(C(=O)N2CCC(CCC(=O)NC3CCN(Cc4ccccc4)C3)CC2)OCCO1 (stereo unspecified) | 4 | 1
CCc1ccc(-c2csc(NC(=O)c3ccc(OC)c(OC)c3)n2)cc1 | -13 | -21
CCOc1ccccc1NC(=O)N1CCN(C(c2ccc(F)cc2)c2ccc(F)cc2)CC1 | 17 | 5
CCn1nc(C)c(C(C)NC(=O)Cc2noc3ccccc23)c1C (stereo unspecified) | 22 | 19
OCC1(CCc2ccccc2)CCN(c2ccc3ccccc3n2)CC1 | 1 | 4
CCN(CC)CCNc1ccc(CO)c2sc3ccccc3c(=O)c12 | -4&-22 | -6&-25
O=C(CC(c1ccc(Cl)c(C(F)(F)F)c1)c1c[nH]c2ccccc12)NCCCN1CCOCC1 (stereo unspecified) | 2 | 9
Cc1cc(C)c(-n2cccn2)c(C2CC(=O)Nc3n[nH]c(C4CC4)c32)c1 (stereo unspecified) | 0 | -1
CC(C)c1cncnc1N[C@@H]1CC[C@@H](N)C1 | 2 | 0
CCC(C(=O)Nc1ccc(N2CCc3ccccc3C2)c(C(=O)NCC2CCCO2)c1)c1ccccc1 (stereo unspecified) | -7 | 6

Rewritten in markdown: entries from further up
| structure | NPYLR7 agonist | NPYLR7 agonist max-min |
| --- | --- | --- |
| O=C(CC(c1ccc(Cl)c(C(F)(F)F)c1)c1c[nH]c2ccccc12)NCCCN1CCOCC1 (stereo unspecified) | 2 | 9 |
| Cc1cc(C)c(-n2cccn2)c(C2CC(=O)Nc3n[nH]c(C4CC4)c32)c1 (stereo unspecified) | 0 | -1 |
| CC(C)c1cncnc1N[C@@H]1CC[C@@H](N)C1 | 2 | 0 |
